# Source: PubChem (Vanderbilt University)
# GIRK2 activ: GIRK2 channel activation | P48051 | HEK293-GIRK2 thallium flux, Thallos fluorescence | calls only for hits at 25 µM | actives 0.05% (n = 63,000);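 active means among the strongest 0.2% of first-round signals and kept after retests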;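 further: first round at about 10 µM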
# Target sequence (P48051 whole entry, looked up): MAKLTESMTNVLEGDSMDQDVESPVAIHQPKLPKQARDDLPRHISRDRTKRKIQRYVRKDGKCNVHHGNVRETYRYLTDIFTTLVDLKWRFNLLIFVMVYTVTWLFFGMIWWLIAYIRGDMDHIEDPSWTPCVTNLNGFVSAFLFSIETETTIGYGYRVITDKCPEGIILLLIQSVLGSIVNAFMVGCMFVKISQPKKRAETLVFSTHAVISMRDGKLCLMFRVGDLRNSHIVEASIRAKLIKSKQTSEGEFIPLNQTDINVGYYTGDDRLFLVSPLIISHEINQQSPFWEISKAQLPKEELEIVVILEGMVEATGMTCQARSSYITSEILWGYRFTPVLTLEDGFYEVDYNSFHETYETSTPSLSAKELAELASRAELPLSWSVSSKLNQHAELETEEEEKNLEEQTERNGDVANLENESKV
# Calls only; i = inactive.
canonical_smiles,GIRK2 activ
COC(=O)c1cn(Cc2ccc(C)cc2)nc1S(=O)(=O)N(C)c1ccc(C)cc1,i
COc1ccc(NC(=O)Cn2cnc(-c3noc(C4CC4)n3)c2)cc1Cl,i
CCc1ccccc1NC(=O)CCc1csc(NC(=O)c2ccc(=O)[nH]c2)n1,i
COc1ccc(CNC(=O)c2ccc(Oc3nccnc3N3CCOCC3)cc2)cc1,i
Cc1cc(C)cc(-n2ccc(=O)c(-c3nc(-c4ccc(OC(C)C)cc4)no3)n2)c1,i
O=C(CCC(=O)N1CCN(C(=O)C2CC2c2cccs2)CC1)c1ccccc1 (configuration not stated),i
COc1ccc2cc(CNc3ccc(C)cc3)c(=O)n(CC(=O)N3CCOc4ccc(C)cc43)c2c1,i
O=C(c1ccc(Br)o1)N1CCC(CSCc2ccco2)CC1,i
CNC(=O)C1COCC(=O)N1Cc1cccs1 (configuration not stated),i
CC(C)c1nccn1CC1CCN(S(=O)(=O)c2ccc(F)c(Cl)c2)CC1,i
COc1cc2ncnc(Nc3ccc(C)c(O)c3)c2cc1OC,i
Cc1ccc(-c2noc(Cn3cnc4c(nnn4Cc4ccc(Cl)cc4)c3=O)n2)cc1C,i
Fc1cccc(COc2ccc(Nc3ncnc4cc(-c5ccc[nH]5)sc34)cc2Cl)c1,i
COC(=O)c1ccc2c(=O)n(CCC(=O)NCc3cccc(OC)c3)c(=S)[nH]c2c1,i
Cc1cc(=O)[nH]c(-n2nc(C)c(CCC(=O)N3CCN(Cc4ccccc4)CC3)c2C)n1,i
O=C(Nc1cc(N2CCCC2)ncn1)C1c2ccccc2Oc2ccccc21,i
CC(C)c1ccc(OCC(=O)NCC#CCOc2ccccc2C(N)=O)cc1,i
Cn1nnn(-c2ccc(NC(=O)c3ccc(Cl)s3)cc2)c1=O,i
O=C(CSc1ncnc2c(-c3ccccc3)c[nH]c12)Nc1cccc(F)c1,i
CCCCCCCCCCCC(=O)NC[C@]1(C)CCC[C@]2(C)c3ccc(C(C)C)cc3CCC12 (some centres not stated),i
COc1ccc(-c2c(C)oc3cc(OCc4ccc([N+](=O)[O-])cc4)ccc3c2=O)cc1OC,i
CCc1cc2c(=O)c(-c3ccc(Br)cc3)coc2cc1OC,i
c1ccc(Cc2nc3ccc(Nc4ncnc5ccccc45)cc3[nH]2)cc1,i
O=C(CSc1nccn2nc(-c3ccccc3)cc12)Nc1ccc2c(c1)OCO2,i
COc1nn(C)cc1C(=O)Nc1nnc(SCC(=O)Nc2ccccc2C(F)(F)F)s1,i

# 3 successive entries from above, for reference:
canonical_smiles,GIRK2 activ
COC(=O)c1ccc2c(=O)n(CCC(=O)NCc3cccc(OC)c3)c(=S)[nH]c2c1,i
Cc1cc(=O)[nH]c(-n2nc(C)c(CCC(=O)N3CCN(Cc4ccccc4)CC3)c2C)n1,i
O=C(Nc1cc(N2CCCC2)ncn1)C1c2ccccc2Oc2ccccc21,i

# The main list resumes, starting 3 compounds before the break.
canonical_smiles,GIRK2 activ
c1ccc(Cc2nc3ccc(Nc4ncnc5ccccc45)cc3[nH]2)cc1,i
O=C(CSc1nccn2nc(-c3ccccc3)cc12)Nc1ccc2c(c1)OCO2,i
COc1nn(C)cc1C(=O)Nc1nnc(SCC(=O)Nc2ccccc2C(F)(F)F)s1,i
Cc1c(C)n2c3c(=O)[nH]c(=O)n(C)c3nc2n1CCNc1ccc(Oc2ccccc2)cc1,i
CCC(C(=O)NCCOC)n1cc(-c2nc(-c3ccccc3F)no2)ccc1=O (configuration not stated),i
Cn1c(=O)c([N+](=O)[O-])c(NC2CCS(=O)(=O)C2)c2ccccc21 (configuration not stated),i
Cc1cc(NC(=O)C(C)n2nc(-c3ccc(F)cc3)ccc2=O)on1 (configuration not stated),i
COc1ccccc1CN1COc2ccc3c(c2C1)O/C(=C\c1ccncc1)C3=O,i
CCCCOc1ccc(C(=O)NCC2(CO)CC2)cc1,i
CCOC(=O)C1CCc2sc(NC(=O)COc3ccc4c(c3)C(=O)CC4)nc21 (configuration not stated),i
Cc1nc2ccc(NC(=O)C(C)Oc3ccc4c(c3)OCO4)cc2c(=O)n1-c1ccccc1 (configuration not stated),i
COc1ccccc1CNc1nccn(-c2cc(C)c(Cl)cc2OC)c1=O,i
COc1cccc(OCC(O)CSc2ccccn2)c1 (configuration not stated),i
Cc1ccsc1/C=C1\Oc2cc(OC(=O)C(C)C)ccc2C1=O,i
COc1ccccc1C(O)Cn1cc(C(=O)NCc2c(C)noc2C)nn1 (configuration not stated),i
COc1ccc(CN2C(=O)N(c3ccc(OC)c(OC)c3)S(=O)(=O)c3ccccc32)cc1F,i
O=S(=O)(NCC1(CO)CC1)c1ccc2c(c1)CCCC2,i
COc1ccc(-c2cn3c(C(=O)NCc4cccs4)csc3n2)cc1,i
Cn1c(=O)c2c(ncn2CN2CCN(CCO)CC2)n(C)c1=O,i
COc1ccc(-c2ccc(=O)n(CCNS(=O)(=O)c3cc(C(F)(F)F)ccc3Cl)n2)cc1,i
Cc1cn2c3c(=O)n(Cc4ccccc4F)c(=O)n(C)c3nc2n1CCN1CCOCC1,i
COc1cccc(CNC(=O)C(=O)NCCC2CCCCN2S(=O)(=O)c2ccc(F)cc2C)c1 (configuration not stated),i
Cc1ccc(N2CC(C(=O)N3CCN(CCn4cccn4)CC3)CC2=O)cc1C (configuration not stated),i
Cc1cccc(-c2nc(C)c(-c3cc(C(=O)N4CCCCCC4)n[nH]3)s2)c1,i
O=C(Cn1cc(S(=O)(=O)N2CCOCC2)ccc1=O)NCc1ccccc1,i
CCOC(=O)c1ccc(-n2c(C)cn3c4c(=O)n(CCc5ccccc5)c(=O)n(C)c4nc23)cc1,i
Cc1oc(-c2cc(C(F)(F)F)ccc2Cl)cc1C(=O)N1CCOCC1,i
COC(=O)c1ccc(NC(=O)c2cc(=O)c(OCc3ccc(F)cc3)c[nH]2)cc1,i

# Arranged by SMILES length (lowest first): 5 of the compounds above
canonical_smiles,GIRK2 activ
O=S(=O)(NCC1(CO)CC1)c1ccc2c(c1)CCCC2,i
Cc1oc(-c2cc(C(F)(F)F)ccc2Cl)cc1C(=O)N1CCOCC1,i
COc1ccccc1CN1COc2ccc3c(c2C1)O/C(=C\c1ccncc1)C3=O,i
COc1cccc(CNC(=O)C(=O)NCCC2CCCCN2S(=O)(=O)c2ccc(F)cc2C)c1 (configuration not stated),i
COc1ccc(CN2C(=O)N(c3ccc(OC)c(OC)c3)S(=O)(=O)c3ccccc32)cc1F,i

# (continued)
canonical_smiles,GIRK2 activ
COc1ccc(-c2csc(SCc3ccc(C#N)cc3)n2)cc1,i
O=C(O)c1cc(I)ccc1-n1cnnn1,i
CC(=O)c1ccc(NC(=O)CSc2ncccc2-c2nc3ccccc3[nH]2)cc1,i
O=C(Nc1cc(C2CC2)nn1-c1nc(-c2ccccc2)cc(=O)[nH]1)c1cc2ccccc2o1,i
CCc1cc2c(CN3CCN(CCO)CC3)cc(=O)oc2cc1O,i
O=C(/C=C/c1ccccc1Cl)N(Cc1ccsc1)C1CC1,i
CCOC(=O)c1oc2cc(OCC(=O)c3ccccc3)ccc2c(=O)c1-c1ccc2c(c1)OCCO2,i
COCCNC(=O)Nc1nnc(-c2cccs2)o1,i
COCCNC(=O)CCNS(=O)(=O)c1cc(N(C)S(C)(=O)=O)c(C)cc1C,i
COc1ccccc1-n1cnnc1CN1CCN(Cc2ccccc2Cl)CC1,i
CC(C)NC(=O)C(=O)NCC1CCN(C(C)C)CC1,i
CCCCN(C)CCNC(=O)C(=O)c1c[nH]c2ccccc12,i
CC(=O)Nc1ccc(NC(=O)CCn2c(=O)oc3ccc(Cl)cc32)cc1,i
CCOc1ccc(C(=O)NCC2CCN(C(=O)Oc3ccccc3)CC2)cc1OCC,i
CCOC(=O)N1CCC(NC(=O)c2ccc(OCc3nc(C4CC4)cs3)cc2)CC1,i
COc1ccc(S(=O)(=O)N2CCN=C2SCc2cccc(C(F)(F)F)c2)cc1,i
O=C(Cc1cccc2ccccc12)NCCCn1ncccc1=O,i
COc1cccc(NC(=O)c2cn(Cc3ccc(NC(=O)c4ccccc4F)cc3)cn2)c1,i
COC(=O)C(C)Oc1ccc2c(c1C)O/C(=C\c1ccc(OC)c(OC)c1)C2=O (configuration not stated),i
COc1ccc(OC)c(NC(=O)CCCCCn2nnc3ccccc3c2=O)c1,i
O=C(C1=COCCO1)N1CCC(Oc2nc3ccccc3s2)CC1,i
COc1ccc(N2CCN(CC(=O)NCc3ccncc3)C2=O)cc1,i
Cc1cn2c(CCC(=O)Nc3ccc(F)c(C(F)(F)F)c3)csc2n1,i
CCc1cccc(OCC2Cn3c(nc4c3c(=O)n(C)c(=O)n4C)O2)c1 (configuration not stated),i
O=C(NCCc1ccccc1)N1CCCSCC1CN1CCCC1 (configuration not stated),i
Nc1c(-c2ccccn2)nsc1C(=O)NCc1ccc(Br)cc1,i
COc1ccc(OCc2noc(CNC(=O)c3ccc([N+](=O)[O-])o3)n2)cc1,i
COc1cccc(CSc2nc(CC(=O)Nc3cccnc3)cc(=O)[nH]2)c1,i
CC(=O)c1ccc(NC(=O)c2ccc(CNS(=O)(=O)c3cc(C)ccc3C)cc2)cc1,i
C#CCOCC1CCCN(S(=O)(=O)c2cc(C)c(Cl)cc2Cl)C1 (configuration not stated),i
CCc1ccc(N2CCCCn3c2nc2c3c(=O)n(CC(C)C)c(=O)n2C)cc1,i
O=C(c1cccs1)N1CCC(c2nnc(C3CC3)s2)CC1,i
CN(C)CC1CSCCCN1C(=O)/C=C/c1ccccc1Cl (configuration not stated),i
Cc1cc(C(F)(F)F)nc(CCNC(=O)CCSc2ccccc2)n1,i
Cc1cc(C)c(S(=O)(=O)Cc2nc(-c3ccccc3)no2)cc1C,i
O=C(CSc1ncccc1-c1nc2ccccc2[nH]1)N1CCN(c2ccccc2)CC1,i
CCOc1ccc(NC(=O)c2ccc(NS(=O)(=O)c3cccc(F)c3)cc2)cc1,i
O=C(Nc1cccc(Cl)c1)NC1CC(=O)N(C2CC2)C1 (configuration not stated),i
COc1ccc(Cl)cc1NC(=O)N1CCC(Oc2ccc(C#N)cn2)CC1,i
COc1ccc(CC(C)(O)CNC(=O)C(c2ccccc2)c2ccccc2)cc1 (configuration not stated),i
Cc1cn2c3c(=O)n(C)c(=O)n(C)c3nc2n1CCNc1ccc(Oc2ccccc2)cc1,i
CC(=O)NCCNc1cc(-n2cccc2)ncn1,i
CS(=O)(=O)c1ccc2nc(NC(=O)Cn3c(=O)[nH]c4ccccc4c3=O)sc2c1,i
Cc1ccc(Cn2c(=O)n(CCC(=O)NCc3ccc4c(c3)OCO4)c(=O)c3ccccc32)cc1,i
Nc1nc2c([nH]c(=O)n2C[C@H]2O[C@@H](CO)C(O)C2O)c(=O)[nH]1 (some centres not stated),i
O=C(NC1CCN(C(=O)c2cn(-c3ccc(Cl)cc3)nn2)CC1)c1cccs1,i
CC(C)c1oc2cc(O)ccc2c(=O)c1-c1nc2ccccc2n1C,i
Cc1ccc(N2CC(c3nc(-c4ccc(Cl)cc4)no3)CC2=O)cc1F (configuration not stated),i
Cc1c(Cl)cccc1NC(=O)C1COCC(=O)N1Cc1cccs1 (configuration not stated),i
CC(C)(CO)NC(=O)Cc1ccc(NC(=O)c2ccc(OC(F)(F)F)cc2)cc1,i

# The results go on.
canonical_smiles,GIRK2 activ
CCN1N=C(C(=O)N2CCC(C)CC2)S(=O)(=O)c2ccccc21,i
CCOC(=O)N1CCN(C(=O)c2cn(-c3cccc(F)c3)nn2)CC1,i
CC1(C)OCC2(CO1)CN(C(=O)Cn1ccc3ccccc31)C2,i
Cn1nnn(-c2ccc(NC(=O)CCSc3ccccc3)cc2)c1=O,i
CC(=O)C1=C(C)Nc2ncnn2C1c1ccc(OC(F)F)cc1 (configuration not stated),i
CNC(=O)/C(C#N)=C1\SC(Cc2cccc(Cl)c2Cl)C(=O)N1c1ccccc1 (configuration not stated),i
O=C(NC1CCCC1)c1cn(-c2ccc(S(=O)(=O)N3CCCC3)cn2)cn1,i
COc1ccccc1N1CCN(Cc2cc(=O)oc3ccc(C(C)C)cc23)CC1,i
COc1ccc(F)cc1S(=O)(=O)N1CCN(c2c(C)nn(-c3ccccc3)c2C)CC1,i
Cc1cccc(Cl)c1NC(=O)Cn1ccn2nc(-c3cccs3)cc2c1=O,i
CCOC(=O)CCNC(=O)N1CCN(Cc2nnnn2-c2ccc(Cl)cc2)CC1,i
O=C(NCc1ccc(F)cc1)N1CCN(c2nc3c(C(F)(F)F)cccc3s2)CC1,i
O=C(NCC(F)(F)F)c1ccc(OCC(=O)C2CC2)cc1,i
COc1ccc(-n2c(C)cn3c4c(=O)n(Cc5ccc(C)cc5)c(=O)n(C)c4nc23)cc1,i
O=C1CCCN1c1ccc(CSc2n[nH]c(=O)c3cc(-c4ccco4)nn23)cc1,i
COc1ccc(CNC(=O)c2ccc(-c3cc(-c4nnc(C)o4)ccc3C)cc2)cc1,i
CCOC(=O)c1oc2cc(OC(=O)c3ccc(OC)cc3)ccc2c(=O)c1-c1ccccc1OC,i
Cc1cn2c3c(=O)n(CCc4ccccc4)c(=O)n(C)c3nc2n1C(C)c1ccccc1 (configuration not stated),i
COc1cccc(NC(=O)Cc2cc(=O)[nH]c(SCc3ccc(F)cc3)n2)c1,i
Cc1cc(C(=O)NCCCN2CCN(c3ccccc3)CC2)no1,i
COc1cccc(S(=O)(=O)N2CCCC(c3nnc(C(F)(F)F)o3)C2)c1 (configuration not stated),i
Cc1cc(N2CCCCC2)nc(NCCNC(=O)c2ccco2)n1,i
CCc1ccc(-c2ccc(=O)n(CCc3nc(-c4ccc5c(c4)OCO5)no3)n2)cc1,i
O=C(CCn1nnc2ccccc2c1=O)Nc1ccc(OC(F)(F)F)cc1,i
COC(=O)CSc1nc2c(c(=O)[nH]c(=O)n2C)n1CC(C)C,i
CCn1cc(C(=O)Nc2ccccn2)c(=O)c2cc(Cl)ccc21,i

# The list is partial, so the mix of outcomes need not match the whole.
